Arbovirus inh = blocks arbovirus infection; arbovirus infection cell-based antiviral screen; inhibition, % at 10 µM; hit rate 0.37% among 200,000;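 active means inhibition from about 30%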;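 further: bluetongue infection of BSR cells; cell survival read as ATP light after 72 h; 0% = infected wells without compound and 100% = uninfected wells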
Mtb growth = M. tuberculosis H37Rv growth inhibitors, H37Rv strain (AID 1626). one-dose inhibition, % at 10 µM; IC50 in µM for titrated hits. hit rate 0.95% among 220,000. M. tuberculosis H37Rv growth inhibition; higher % means a stronger effect;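 active means confirmed in a dose series; inconclusive means inhibition above 80% but not taken into the dose series; inactive means below 80% or under 30% at every dose of the series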;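 further: bacteria incubated seven days before Alamar blue readout; 0% = bacteria only wells and 100% = bacteria with antibiotic wells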
Mtb bLac sens = beta-lactam sensitization of Mtb H37Rv. M. tuberculosis H37Rv growth with meropenem, percent inhibition; hits of this screen are not shown here. inhibition, % at 25 µM. hit rate 0.27% among 330,000;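 active means about 74% or more and at least 40 points above the plate without the antibiotic, then above 30% in a dose series; inconclusive means first-round hits that could not be retested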;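 further: growth measured after seven days incubation then overnight dye step; 0% = bacteria only wells and 100% = bacteria with antibiotic; twin plates without the antibiotic show which effects depend on it; some results filed as inactive read as strong as hits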
YopH PTP inh = YopH (Yersinia) phosphatase inhibition; fluorescence Ex485/Em525; inhibition, %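 (about 10 µM by stock and volumes)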; hit rate 0.16% among 140,000; AID 898;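 active means inhibition of 50% or more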;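 further: controls were vehicle for no effect and minimum signal wells for full effect; inactives centre near -20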
RecA intein inh = inhibitors of M. tuberculosis RecA intein splicing; P9WHJ3; cell-free RecA intein splicing, fluorescence; inhibition, %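 (about 9 µM by stock and volumes)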; hit rate 0.75% among 290,000; AID 2221; in the data active means inhibition above about 30%; inconclusive means no clear call, values can overlap the other calls;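 further: 0% = vehicle wells and 100% = reference inhibitor control wells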
Target sequence (P9WHJ3 whole entry, looked up): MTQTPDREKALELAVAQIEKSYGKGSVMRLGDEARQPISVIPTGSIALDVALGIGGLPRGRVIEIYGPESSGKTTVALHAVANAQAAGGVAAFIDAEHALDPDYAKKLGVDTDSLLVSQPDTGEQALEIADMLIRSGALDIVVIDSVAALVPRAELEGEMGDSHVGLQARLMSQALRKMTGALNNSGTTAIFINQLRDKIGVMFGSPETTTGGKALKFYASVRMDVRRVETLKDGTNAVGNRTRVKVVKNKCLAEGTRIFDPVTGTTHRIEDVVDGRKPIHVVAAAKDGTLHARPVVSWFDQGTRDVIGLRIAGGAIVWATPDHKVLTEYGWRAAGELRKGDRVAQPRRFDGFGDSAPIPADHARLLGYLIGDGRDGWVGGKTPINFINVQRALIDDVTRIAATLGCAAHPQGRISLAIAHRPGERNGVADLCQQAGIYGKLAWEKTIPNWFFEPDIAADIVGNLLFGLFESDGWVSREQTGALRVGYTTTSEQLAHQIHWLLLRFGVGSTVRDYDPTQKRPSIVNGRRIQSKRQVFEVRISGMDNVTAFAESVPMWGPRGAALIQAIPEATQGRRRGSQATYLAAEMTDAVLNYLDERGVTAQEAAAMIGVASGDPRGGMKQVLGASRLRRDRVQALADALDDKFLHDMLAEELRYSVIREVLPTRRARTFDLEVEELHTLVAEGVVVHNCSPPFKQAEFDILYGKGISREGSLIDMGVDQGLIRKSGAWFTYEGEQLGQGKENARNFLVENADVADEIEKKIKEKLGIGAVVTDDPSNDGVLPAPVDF
Arbovirus inh repeat = also measured in Arbovirus inh; calls as there; inhibition, %; measured here: 10K subset replicate screen; many hits read low in the repeat;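 first of two repeat runs on a subset; 0% = infected and 100% = uninfected wells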
Numbers without * were called inactive; ? = inconclusive; / = not tested or not shown. The list is partial; the hit share may differ from the screen's.

SMILES	Arbovirus inh	Mtb growth	Mtb bLac sens	YopH PTP inh	RecA intein inh	others
COc1ccc(Cl)cc1NC(=O)N(C)Cc1c(C)nn(C)c1C	-6	2%	-11	-2	-0.4
COc1cc(CCC(C)NCc2ccccc2)ccc1O (stereo not drawn)	/	/	-1	/	-5.6
O=C(c1oc(=O)c2ccccc2c1-c1ccccc1)N1CCC(O)CC1	18	-7%	3	/	-1.2	Arbovirus inh repeat=2
COc1ccc(-c2noc(N3CCC(C(=O)Nc4ccc(F)cc4F)CC3)n2)cc1	/	/	-6	/	-5.4
O=C(NCCc1ccccc1)c1c(F)c(F)c(F)c(F)c1F	-6	7%	10	3	-2.4
COc1ccc(OC)c(Nc2nc(NCCCN(C)C)nc(N)c2[N+](=O)[O-])c1	/	2%	78	/	2.1
O=c1c2ccccc2nc(SCc2ccc([N+](=O)[O-])cc2)n1-c1ccc(Cl)cc1	-2	-1%	-1	-15	-1.4
Cc1ccc(C)c(NS(=O)(=O)c2ccc(OCC(=O)NCc3ccco3)cc2)c1	1	-5%	-13	-30	0.6
COc1ccc(N=c2cc(-c3ccc(OC)cc3)oc3ccccc23)cc1	26	?	-4	-6	9.7
O=C(O)CN1CCN(Cc2ccccc2F)C1=O	3	3%	2	/	-2.9
Cc1ccc(NC(=O)NCC2CCN(Cc3cc(C)ccc3Cl)CC2)c(C)c1	-6	6%	-3	/	0.0
Nc1nonc1-n1nnc(C(=O)N/N=C/c2c(Cl)cccc2Cl)c1CSC1=NCCS1	/	2%	1	/	-2.7
Cc1ccnc(NC(=O)Nc2ccc(Br)cc2Cl)c1	-5	4%	-2	/	/
COc1ccc2c(CC(=O)N[C@@H](Cc3ccccc3)C(=O)O)cc(=O)oc2c1C	/	/	-5	/	0.7
Cc1cc(C(=O)NC(C)C2CCCO2)cs1 (stereo not drawn)	-2	0%	1	-17	-2.3
COc1ccc(S(=O)(=O)N2CCCC2CNC(=O)C(=O)Nc2cccc(F)c2)cc1 (stereo not drawn)	/	/	-10	/	0.8
c1ccc2c(CCNCc3ccc4c(c3)OCO4)c[nH]c2c1	-27	11%	10	-48	-3.1
Cc1[nH]c2ccccc2c1CN1CCc2ccccc2C1	-36	-3%	5	-22	-0.2
COc1ccc(NC(=O)CSc2nc3n[nH]c(C)c3c(=N)n2-c2ccc(Cl)c(C)c2)cc1OC	/	/	7	/	-1.5
C=CCSC1=N/C(=C\c2cc(OCC)c(OC(C)=O)c([N+](=O)[O-])c2)C(=O)S1	4	5%	7	-27	4.2
Cc1ccc(C(=O)N/C(=C\c2ccc(-c3cc(Cl)ccc3Cl)o2)C(=O)NCc2cccnc2)cc1	-35	/	92	-31	21
CC[n+]1c(/C=C/c2c[nH]c3ccccc23)ccc2cc(C)ccc21	-36	4%	/	/	/
CC(=O)Cc1nsc(NC(=O)c2ccco2)n1	7	-9%	-1	-2	-1.4
COC(=O)c1ccc(NS(=O)(=O)c2cc(-c3cc(C)no3)ccc2OC)cc1	/	/	4	/	0.9
Cc1ccc(NC(=O)CC2C(=O)OCC3CCCCN32)cc1Cl (stereo not drawn)	2	1%	-6	-22	0.2

The closing three compounds of the part before come first, to join the parts:
SMILES	Arbovirus inh	Mtb growth	Mtb bLac sens	YopH PTP inh	RecA intein inh	others
CC(=O)Cc1nsc(NC(=O)c2ccco2)n1	7	-9%	-1	-2	-1.4
COC(=O)c1ccc(NS(=O)(=O)c2cc(-c3cc(C)no3)ccc2OC)cc1	/	/	4	/	0.9
Cc1ccc(NC(=O)CC2C(=O)OCC3CCCCN32)cc1Cl (stereo not drawn)	2	1%	-6	-22	0.2
C[C@H](NC(=O)C1CCN(S(=O)(=O)c2ccccc2)CC1)C(=O)NCc1ccco1	/	/	-6	/	1.5
O=C(Nc1ccc2c(c1)OCO2)C1CCCCN1S(=O)(=O)c1ccccc1 (stereo not drawn)	-2	17%	-1	-16	14
COc1nc(C)cc(C)c1S(=O)(=O)c1ccc(Cl)cc1	/	/	1	/	2.9
O=C(COc1cccc2c1CCN(Cc1ccccc1)C2=O)NCc1ccco1	-25	-4%	4	-21	2.4
Cc1sc2ncnc(SCC(=O)c3cccs3)c2c1C	9	0%	-19	-85	-2.8	Arbovirus inh repeat=8
COc1cccc2cc(/C(C)=N/Nc3nc(-c4cc(C)ccc4C)cs3)c(=O)oc12	4	1%	1	-23	-1.4
CCOC(=O)C1CCCN(S(=O)(=O)c2cc3c4c(c2)CCN4C(=O)CC3)C1 (stereo not drawn)	/	/	-13	/	3.0
COc1cccc(-c2nc(C=O)cs2)c1	6	1%	5	/	-1.2
CCCSc1nnc(CNS(=O)(=O)c2ccc(C)cc2)n1C	/	/	-7	/	-2.8
CC(NC(=O)CCCc1nnc2n(C)c(=O)c3sccc3n12)c1ccccc1 (stereo not drawn)	/	/	-5	/	-0.9
O=C(Cc1c(Cl)cccc1Cl)Nc1ccncc1	/	/	-5	/	-0.2
O=C(c1cc([N+](=O)[O-])cc([N+](=O)[O-])c1)N1CCCc2ccccc21	-5	28%	75	/	-0.2
COc1ccc(-c2coc3cc(O)ccc3c2=O)cc1OC	5	-3%	-5	-48	0.0
Oc1ccc(C[C@@H]2CNC(=S)N2CCc2cc(C(F)(F)F)cc(C(F)(F)F)c2)cc1	/	-6%	-12	/	2.4
COc1nc2ccccc2c(=O)n1OCC(C)C	2	-5%	-4	-28	-3.2
O=C(O)c1[nH]c2ccccc2c1C(c1ccccc1)c1c(C(=O)O)[nH]c2ccccc12	/	/	-4	/	5.8
Cn1c(SCC(=O)Nc2nccs2)nnc1-c1ccco1	3	2%	-5	31	1.7
O=C(CCCCCNC(=O)c1ccccc1)N/N=C/c1ccc(F)cc1	0	2%	-3	/	1.1
O=C(O)c1cc(-c2ccco2)nc2ccccc12	16	-11%	0	-22	-3.8
Cc1cccc(C(=O)N2CCCC(CCC(=O)N3CCN(c4ccccn4)CC3)C2)c1C (stereo not drawn)	/	/	-4	/	1.2
COc1ccc(C(=O)NCc2nnc(SCC(=O)NCc3ccco3)o2)cc1	/	/	8	/	1.8
CN(C)C(C)(C)C#CCC(c1ccccc1)c1ccccc1	19	2%	-2	-23	-2.0
CCN1CCN(Cc2nnc(-c3ccccc3)o2)CC1	/	/	0	/	-0.8
CCn1c(SCc2nc3ccccc3c(=O)[nH]2)nnc1-c1ccncc1	-2	-3%	-15	-4	2.8
CO/N=C/c1cccn1-c1nccc(OC)c1C#N	-1	0%	1	/	/

Three compounds out of the list, sorted by heavy-atom count, rising.
SMILES	Arbovirus inh	Mtb growth	Mtb bLac sens	YopH PTP inh	RecA intein inh	others
COc1nc2ccccc2c(=O)n1OCC(C)C	2	-5%	-4	-28	-3.2
CC(NC(=O)CCCc1nnc2n(C)c(=O)c3sccc3n12)c1ccccc1 (stereo not drawn)	/	/	-5	/	-0.9
COc1cccc2cc(/C(C)=N/Nc3nc(-c4cc(C)ccc4C)cs3)c(=O)oc12	4	1%	1	-23	-1.4

The main list resumes, repeating the three entries before the break.
SMILES	Arbovirus inh	Mtb growth	Mtb bLac sens	YopH PTP inh	RecA intein inh	others
CCN1CCN(Cc2nnc(-c3ccccc3)o2)CC1	/	/	0	/	-0.8
CCn1c(SCc2nc3ccccc3c(=O)[nH]2)nnc1-c1ccncc1	-2	-3%	-15	-4	2.8
CO/N=C/c1cccn1-c1nccc(OC)c1C#N	-1	0%	1	/	/
CC(NCCC(c1ccccc1)c1ccccc1)c1ccccc1 (stereo not drawn)	-42	0%	10	-38	4.6
O=C(O)c1cccc(-n2nnnc2SCc2ccccc2Cl)c1	9	-5%	0	/	0.1
O=C(c1cccc(Cl)c1)C1CCCN(Cc2ccon2)C1 (stereo not drawn)	-2	3%	-5	/	2.7
Cc1c(-n2cccc2C=O)cccc1[N+](=O)[O-]	6	2%	3	/	-2.8
COc1cccc(C2(O)CCSCC2CN(C)C)c1 (stereo not drawn)	-2	-2%	-3	-12	-1.6
Cc1ccc(-c2cc(C(=O)N3CCC(C)CC3)c3ccccc3n2)cc1	/	/	4	/	9.5
O=C(CN1C(=O)c2ccccc2C1=O)Nc1cccc2cccnc12	-5	7%	-2	-48	-0.3	Arbovirus inh repeat=-5
CS(=O)(=O)N(CC(=O)NC1CCCCC1)c1cccc(Cl)c1	0	0%	-4	-10	5.8
CCS(=O)(=O)N1CCN(C2CCC(C)CC2)CC1 (stereo not drawn)	-2	-1%	4	6	-1.5
O=C(Nc1ccc(Cl)cc1)N1CCCN(Cc2ccc(F)cc2)C1	-43	7%	59	9	1.3
CCOC(=O)c1cnc2ccc(C(=O)OC)cc2c1NCCc1ccc(OC)c(OC)c1	-15	4%	-3	-21	-0.1
O=C(CN1C(=O)CCC1=O)Nc1nc(-c2cccs2)cs1	-10	4%	-7	-28	-2.7
C[C@@H]1NC(=O)N(CCCn2ccnc2)C1=O	/	/	2	/	-0.9
CC1CC(C)CN(S(=O)(=O)c2cccc3nonc23)C1 (stereo not drawn)	/	/	-4	/	-0.2
Cc1ccc(N2CC(C(=O)Nc3nnc(SCc4cccnc4)s3)CC2=O)cc1 (stereo not drawn)	/	/	-5	/	-5.1
CC1CCc2nn(CC(=O)NCCC3=CCCCC3)cc2C1 (stereo not drawn)	0	3%	8	-23	-0.2	Arbovirus inh repeat=-2
O=S(=O)(NCc1ccc2c(c1)OCO2)c1cccc2cccnc12	4	-6%	5	-99	-0.9
O=C(c1ccco1)N1CCN(C(=O)c2cnn3cccnc23)CC1	-5	-5%	-9	-26	-1.2
Cc1ccc(NC(=O)CCn2c(=O)oc3ccccc32)cc1	-4	3%	1	-42	4.6
COC1=C(C)C(O)=C(C(=O)/C=C/c2ccccc2)C(=O)C1(C)C	/	-2%	100	/	2.1

High-throughput results as filed in PubChem BioAssay.
